SmPrx2 inh: blocks S. mansoni peroxiredoxin 2 enzymatic activity. S. mansoni Prx2 activity coupled to TGR/GSH (TGR is thioredoxin glutathione reductase), NADPH fluorescence loss, qHTS; some inactives read as strong as hits. Potency, µM. actives 0.07% (n = 65,000); active means full or partial inhibition curve with a strong effect at the top dose; inconclusive means weaker partial or single-point curve; inactive means no accepted curve; further: series up to 57 µM; many of its hits are not listed in these tables
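Coupled assay in which S. mansoni TGR passes NADPH reducing equivalents via glutathione to Prx2, which reduces H2O2. Compounds were preincubated 15 min at room temperature with 25 nM TGR/50 nM Prx2 mix. Kinetic NADPH fluorescence loss (ex 365/em 450 nm) was monitored.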
Anthrax LT inh: blocks cellular internalization of anthrax lethal toxin. Cells, anthrax lethal toxin internalization, FRET ratio (460/530). Potency, µM (series often up to 40 µM), without a hit: at the top dose activity change, negative = inhibition, usual class: inhibitors. actives 0.67% (n = 70,000). AID 912; active = well fitted falling ratio curve with the 530 nm signal flat; inconclusive = other ratio curves, or a change in one channel alone; inactive = flat curves in the ratio and both channels; the % refers to the ratio; further: on the % scale 0 is the no-effect control and ±100 the full control effect; nearly all actives have a fitted effect of over 50% in size; tested in ME-180 cells; beta-lactamase reporter
An asterisk follows results filed as active; u = inconclusive; x = no result given; & = joins results of further samples; [ ] = another dose, or the depositor's remark. Potency means the concentration at half of the fitted maximal effect.

SMILES | SmPrx2 inh | Anthrax LT inh
CCN(C1CCS(=O)(=O)C1)S(=O)(=O)c1cccs1 (stereo not given) | >57 | 2.9%
Cc1ccc(C(C(=O)NC2CCCCC2)N(Cc2cccnc2)C(=O)C2COc3ccccc3O2)o1 (stereo not given) | >57 | u
COC(=O)C1=C(N)Oc2cc(C)[nH]c(=O)c2C1c1cc(OC)c(OC)c(OC)c1 (stereo not given) | >57 | u
COCCN1CCn2c(nc3cc(NC(=O)NC4CCCCC4)ccc32)C1 | >57 | -14.8%
N[C@@H](CSC1c2ccccc2-c2ccccc21)C(=O)O | >57 | -2.4%[8 µM]
CN1CCCN(CC(O)COCc2cccs2)CC1 (stereo not given) | >57 | -10.9%
CCCCCCNC(=O)CCNC(=O)c1cc(OC)c(OC)c(OC)c1 | >57 | 2.2%
Cn1nnnc1SCC(=O)c1cccs1 | >57 | 9.8%
Cc1ccc(-c2ccc(CCC(=O)O)n2NC(=O)c2cccs2)cc1 | >57 | 0.3%
COc1cc(-c2nnc(SCC(=O)c3cc(C)n(CC4CCCO4)c3C)o2)cc(OC)c1OC (stereo not given) | >57 | -6.0%
O=C(CN1C(=O)c2ccccc2S1(=O)=O)N1CCN(c2ccc(F)cc2)CC1 | >57 | -8.0%
CCCCCCCCCCCC1=C(O)C(=O)C=C(O)C1=O | >57&>57 | u
CCOC(=O)COc1ccc2nsnc2c1 | >57 | u
COc1nc(NCCc2ccc(OC)c(OC)c2)nc(OC)n1 | >57 | -0.4%
Cc1cccn2c(=O)c3cc(C(=O)NC4CCCC4)c(=N)n(C4CCCC4)c3nc12 | >57 | 21.9%
N#C/C(=C(/O)CN1CCOCC1)c1nc(-c2ccccc2)cs1 | >57 | u
Cc1c(Br)cc(C(=O)N2CCN(CCO)CC2)c(C)c1C | >57 | 2.0%
COc1ccccc1CNC(=O)c1cc2c(=O)n(C)c3ccccc3c2n1C | >57 | 3.5%
CC(C)(C)SCCNC(=O)COc1ccccc1 | x | 4.4%
CCOc1ccc(NC(=O)Nc2cc(C)ccc2OC)cc1 | >57 | -12.8%
N#CCSc1nc2ccccc2c(=O)n1CCC(=O)NC1CCCCC1 | >57 | u
C=C(C)C(C)(C#CCN1CCCC1)OC(C)=O (stereo not given) | >57 | 4.2%
O=C(COc1ccc(Cl)cc1)NCc1nnc(SCC(=O)NCCc2ccccc2)o1 | >57 | 8.6%
Cc1ccnc(NC(=O)C2CCCN(S(=O)(=O)c3cnc[nH]3)C2)c1 (stereo not given) | >57 | 5.1%
Cc1cc(Nc2ccc(F)cc2Cl)n2nc(C)nc2n1 | >57 | -2.0%

Further structures follow:
SMILES | SmPrx2 inh | Anthrax LT inh
Cc1cc(C)n(-c2ccc(C(=O)OCC(=O)Nc3ccc(S(=O)(=O)N4CCOCC4)cc3)cc2)n1 | >57 | -2.4%
O=C(O)Cn1cc(C(=O)c2ccccc2)c2ccccc21 | >57 | x
O=C(C1CCN(S(=O)(=O)c2ccc(Br)s2)CC1)N1CCc2ccccc21 | >57 | x
CCCCCCn1c(N2CCC(C)CC2)nc2c1c(=O)[nH]c(=O)n2C | >57 | 11.2%
COC(=O)c1sccc1NC(=O)c1ccc2c(c1)OCO2 | x | -15.2%
COCCCNC(=O)CCN1C(=O)COc2ccccc21 | >57 | 14.6%
CC1(C)CC(=O)C2=C(C1)Oc1ncn(CCO)c(=N)c1C2c1ccccc1 (stereo not given) | >57 | 5.7%
COc1ccc(CN(C(=O)CSc2nnc(-c3ccccc3F)o2)c2ccc(F)cc2)cc1 | >57 | u
O=C(c1ccccc1)c1cccn1CC(=O)N1CCCCCC1 | >57 | -6.2%
Cc1ccc2[nH]c(=O)c(CNC(C)C)cc2c1 | >57 | 0.0%
OC(CNCc1ccco1)Cn1c2ccccc2c2ccccc21 (stereo not given) | >57 | -5.7%
O=C1NC(c2cccnc2)C(C(=O)c2cccs2)C(O)(C(F)(F)F)N1 (stereo not given) | >57 | 2.7%
Cc1nnc(SCC(=O)c2c(N)n(C)c(=O)n(C)c2=O)n1Cc1ccccc1 | >57 | -3.8%
CC(=O)NCC(=O)NC(C(=O)Nc1ccc2c(c1)OCCO2)c1ccc(C)cc1 (stereo not given) | >57 | 11.1%
CC(=O)OC(C)(C)N=Nc1ccc(Br)cc1 | >57 | 1.3%[8 µM]
COc1ccc(-c2nc3c(n2O)CCC/C3=N\O)cc1 | x | 7.6%
CCOc1cc2[nH]c(=S)n(CCCN3CCCC3=O)c(=O)c2cc1OCC | >57 | 8.4%
Cc1ccc(S(=O)(=O)c2cc3c(=O)n4cc(C)ccc4nc3n(CC3CCCO3)c2=N)cc1 (stereo not given) | >57 | u
Cc1nc2ncnn2c(Nc2ccc3c(c2)OCO3)c1Cc1ccccc1 | >57 | -4.6%
Cc1nc2ccccc2c2oc(C(=O)NCCN3CCCCC3C)cc12 (stereo not given) | >57 | 7.94µM*
C=CCC1(c2ccccc2)Oc2ccccc2-c2nc3cc(Cl)c(Cl)cc3nc21 (stereo not given) | x | 6.4%&-1.4%[8 µM]
c1ccc(N2CC3(CCNCC3)C2)nc1 | u | 14.9%
CCOC(=O)c1c(N)c(C#N)cn1-c1ccccc1 | >57 | 1.0%
Cc1nc2nc(COc3ccccc3)[nH]n2c(=O)c1Cc1ccccc1 | >57 | x
Cn1c(SCC(=O)N2CCOCC2)nc2cccnc21 | >57 | 0.8%

Next part.
SMILES | SmPrx2 inh | Anthrax LT inh
COc1ccccc1N1CCN(C(=O)Cn2nnc(-c3cccs3)n2)CC1 | >57 | u
O=C(O)COc1c(Cl)cc(Cl)c2cccnc12 | >57 | 10.5%[8 µM]
Cc1cc(C)n(-c2nc3ccccc3c(=O)n2OCC(=O)Nc2c(C)cccc2C)n1 | >57 | -6.2%
COc1ccc(C(=O)Nc2cccc(N(C)S(C)(=O)=O)c2)cc1OC | >57 | -4.6%
Cc1c(Cl)cccc1N1C(=O)CC(N(O)c2ccccc2)C1=O (stereo not given) | >57 | 29.4%
Cc1ccc(-c2nc(NC(=O)CSc3nnnn3-c3ccccc3)ns2)cc1 | >57 | 3.9%
Cc1ccccc1N1C(=O)c2cc(S(N)(=O)=O)c(Cl)cc2N[C@H]1C | >57 | -9.4%[3.58 µM]
Cc1nc2oc3c(NCc4ccccc4)ncnc3c2c2c1COC(C)(C)C2 | >57 | u
CCCNc1oc(-c2cccc3ccccc23)nc1C#N | >57 | u
Nc1ccc(-c2cnc(-c3ccc(N)cc3)nc2)cc1 | >57 | -4.8%
COC(=O)CN1C(=O)CC(C)(C)Sc2ccccc21 | >57 | 19.4%
CCOC(=O)c1c(NC(=O)COC)sc(C(C)=O)c1C | >57 | -19.8%
Brc1ccc(-c2nnc(-c3ccc4c(c3)OCO4)o2)o1 | >57 | -7.5%
CCOC(=O)c1sc2nc3n(c(=O)c2c1C)CCCCC3 | >57 | -2.0%
COc1cccc(Cn2c(=O)c(-c3cn(C)c4ccccc34)nc3cnc(N4CCOCC4)nc32)c1 | >57 | u
CCn1c2ccccc2c2nnc(NCCCO)nc21 | >57 | u
CN1CCN(CCC(=O)Nc2ccc(OCc3ccccc3)cc2)CC1 | >57 | -2.0%
CC(=O)c1ccccc1OC(=O)c1ccco1 | >57 | 7.8%
O=C(CCSCCC(=O)N1CCCC1)N1CCCC1 | >57 | 5.0%
Cn1cnnc1SCC(=O)N1c2ccccc2-c2c(ssc2=S)C1(C)C | >57 | -16.3%
COCC(=O)N1CCC2(CCCN(C(=O)Nc3ccc(OC)cc3)C2)CC1 | >57 | u
Cc1nn(C(=O)c2ccc3c(c2)OCO3)c(N)c1-c1ccccc1 | >57 | u
OCc1cc(CO)c(O)c(CCc2ccccc2)n1 | >57 | -7.9%
c1ccc(-c2nnc(N3CCOCC3)nc2-c2ccccc2)cc1 | x | -4.4%
COCCn1c(C)cc(C(=O)COC(=O)CCN2C(=O)c3ccccc3C2=O)c1C | >57 | -4.5%

(next part)
SMILES | SmPrx2 inh | Anthrax LT inh
O=C1c2ccccc2C(Nc2cccc(C(F)(F)F)c2)N1Cc1ccco1 (stereo not given) | >57 | -28.4%
CCN(CC)c1nc(C#N)nc(N(CC)CC)n1 | >57 | 0.7%
O=C1CCCc2c1cc(C(=O)Nc1ccc(Cl)cn1)c(=O)n2-c1ccccc1 | >57 | -5.8%
COc1ccccc1C(c1nnnn1CS(=O)(=O)c1ccc(C)cc1)N1CCSCC1 (stereo not given) | >57 | 3.5%
COc1ccc(S(=O)(=O)Cc2ccc(C(=O)N3CCN(C(=O)c4ccco4)CC3)o2)cc1 | >57 | 15.8%
Cc1cc(C)n(C(=O)c2ccc(S(=O)(=O)NCC3CCCO3)cc2)n1 (stereo not given) | x | 6.2%
CCc1ccc(NC(=O)C(C)Nc2ccc(S(=O)(=O)NC(C)=O)cc2)cc1 (stereo not given) | >57 | 0.2%
c1csc(CNc2ccnc(-c3ccoc3)n2)c1 | >57 | u
O=S(=O)(c1ccc(NC2CCCc3ccccc32)nc1)N1CCOCC1 (stereo not given) | >57 | 1.3%
COc1cccc(CNC(=O)C2CCN(S(=O)(=O)c3ccc4c(c3)CCC(=O)N4)CC2)c1 | >57 | -3.2%
COc1ccccc1N=c1oc2c(OC)cccc2cc1C(=O)NCc1ccco1 | >57 | -9.7%
N#CCCN(CC#Cc1ccccc1)OCc1ccccc1 | x | -21.2%[8 µM]
CCOC(=O)c1[nH]c(C)c(C(=O)NC)c1C | >57 | 4.2%
CCCc1nc(SCC(=O)N2CCC(Cc3ccccc3)CC2)c2c(=O)n(C)c(=O)n(C)c2n1 | >57 | u
c1ccc(-c2noc(COc3ccc4c(c3)OCO4)n2)cc1 | >57 | -9.8%
CCCN1C2=C(C(=O)CCC2)C(c2ccc(O)c(Br)c2)C2=C1CCCC2=O | >57 | u
COc1ccc(CC(=O)OCc2cc3ccccc3[nH]c2=O)cc1 | >57 | -11.9%
COc1ccccc1CN1CC[C@@]2(CCCN(C(C)=O)C2)C1 | >57 | 4.1%
CC1=CC(C)(C)N=C(NC#N)N1 | >57 | 15.6%
CC(C)(O)P(C)(=O)c1ccccc1 (stereo not given) | x | -4.8%
Cc1c(S(=O)(=O)O)ccc(N=Nc2c(O)c(C(=O)O)cc3ccccc23)c1Cl | >57 | u
CCOC(=O)c1cnn(-c2nc(C)nc3sc4c(c23)CCC4)c1N | >57 | -15.4%
O=C(CSc1nc2sc3c(c2c(=O)n1Cc1ccco1)CCC3)N1CCc2ccccc21 | >57 | u
Cn1c(Cn2c(=O)sc3ccccc32)nnc1SCc1ccc(F)cc1 | u | -12.8%
COc1ccccc1C1c2c(oc3ccc(Cl)cc3c2=O)C(=O)N1c1cc(C)on1 (stereo not given) | >57 | 5.7%

Compounds shown so far with a thiophene ring, fused or not (13):
SMILES | SmPrx2 inh | Anthrax LT inh
CCN(C1CCS(=O)(=O)C1)S(=O)(=O)c1cccs1 (stereo not given) | >57 | 2.9%
CN1CCCN(CC(O)COCc2cccs2)CC1 (stereo not given) | >57 | -10.9%
Cn1nnnc1SCC(=O)c1cccs1 | >57 | 9.8%
Cc1ccc(-c2ccc(CCC(=O)O)n2NC(=O)c2cccs2)cc1 | >57 | 0.3%
O=C(C1CCN(S(=O)(=O)c2ccc(Br)s2)CC1)N1CCc2ccccc21 | >57 | x
COC(=O)c1sccc1NC(=O)c1ccc2c(c1)OCO2 | x | -15.2%
O=C1NC(c2cccnc2)C(C(=O)c2cccs2)C(O)(C(F)(F)F)N1 (stereo not given) | >57 | 2.7%
COc1ccccc1N1CCN(C(=O)Cn2nnc(-c3cccs3)n2)CC1 | >57 | u
CCOC(=O)c1c(NC(=O)COC)sc(C(C)=O)c1C | >57 | -19.8%
CCOC(=O)c1sc2nc3n(c(=O)c2c1C)CCCCC3 | >57 | -2.0%
c1csc(CNc2ccnc(-c3ccoc3)n2)c1 | >57 | u
CCOC(=O)c1cnn(-c2nc(C)nc3sc4c(c23)CCC4)c1N | >57 | -15.4%
O=C(CSc1nc2sc3c(c2c(=O)n1Cc1ccco1)CCC3)N1CCc2ccccc21 | >57 | u

Bioassay records from PubChem.

Not all compounds are listed. The share of hits here may be higher or lower than overall.
